Sfp PPTase inh – blocks B. subtilis Sfp PPTase activity; Q9F4F7; 310,000 compounds, 3.5% hits; Biochemical Sfp PPTase activity, qHTS; Potency, µM, without a hit: max response, negative = inhibition, hits mostly inhibitors; active means well fitted inhibition curve with a large enough effect; inconclusive means small, poorly fitted or top-dose-only effect, or another doubt; inactive means no such curve, though single readings can be large or run the other way;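 further: the enzyme is Sfp with the accession as filed and its product quenches rhodamine fluorescence; potency means the concentration at half of the fitted maximal effect; 0% = enzyme reaction without inhibitor and -100% = no enzyme wells; top concentration of the series not given in the record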
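With Hepes-Na pH 7.6 buffer containing 10 mM MgCl2, Sfp (15 nM) modified BHQ-2-YbbR (12.5 uM) using rhodamine-CoA (5 uM). Two reads 30 minutes apart at 525/598 nm yielded each well's rate.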
gsp antag – antagonists of gsp mutant (McCune-Albright syndrome); AID 624288; Potency, µM (highest dose often 76.9 µM), inactives show at the top dose activity change, negative = inhibition, usual class: inhibitors; 340,000 compounds, 0.4% hits; gsp-mutant cells, cAMP HTRF, 30 min; control for the full effect not named in the record; active = falling curve of any shape with a large fitted effect; inconclusive = falling curve, mostly with a smaller effect; inactive = flat or rising curve; cell line not stated here;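 further: intracellular cAMP measured with PDE inhibitor Ro 20-1724 present during compound exposure; potency means the concentration at half of the fitted maximal effect; on the % scale 0 is the no-effect control and ±100 the full control effect; nearly all actives have a fitted effect of over 65% in size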
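HTRF cAMP measurement after 30 min RT detection following 30 min, 37C compound treatment alongside […] (added as 300 uM solution) in G418-selected cells seeded at 2000/well and grown 16–24 h.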
PINK1 expr mod – PINK1 expression modulation | PINK1 immunofluorescence, high-content cytometry, 24 h | Potency, µM (series often up to 76.6 µM), inactives show at the top dose activation (PINK1 increase), usual class: activators | 410,000 compounds, 0.2% hits; active = well fitted activation curve with a large enough effect; inconclusive = small, poorly fitted or top-dose-only effect; inactive = flat fitted curve, though single readings scatter; cell line not stated here;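 further: potency means the concentration at half of the fitted maximal effect; % of control where 0% means no effect; nearly all actives have a fitted effect of over 65% in size; a mitochondrial uncoupler was the plate control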
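Stable cell line, 250 cells/well, 12 h attachment; compounds pinned at 5 concentrations, 24 h; CCCP control. Fixed with nuclear dye, primary antibodies 12 h at 10 degrees C, secondary plus cell stain; laser-scanning cytometer read.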
Menin MLL FP FL – displaces fluorescein MLL peptide from human menin | Fluorescence polarization, fluorescein-MLL peptide displacement from menin | FP activity change, % at 61.4 µM | 290,000 tested, under 10 active | AID 1766; inconclusive = falling polarisation curve, or a change in total fluorescence; inactive = total fluorescence flat and polarisation flat or rising; no compound was filed as active; the % refers to the polarisation; negative = inhibition;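 further: % of control where 0% means no effect; inhibitors lower the polarisation; unlabelled MLL peptide was the positive control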
ClpP mod – qHTS Assay for Activators of ClpP; 340,000 compounds, 1.9% hits; Potency, µM (top dose mostly 57.5 µM), without a hit: at the highest dose activity change, negative = active; AID 651965, 2013; ATP-dependent Clp protease proteolytic subunit (Bacillus subtilis (strain 168)), P80244; purified B. subtilis ClpP, FRET peptide cleavage, 20 min; active = well fitted falling curve with a large enough effect; inconclusive = small, poorly fitted or top-dose-only effect; inactive = no such curve, though single readings can be large or run the other way; further: potency means the concentration at half of the fitted maximal effect; the source files actives as falling curves though it sought activators and does not explain the sign; nearly all actives have a fitted effect of over 65% in size; many hits overshoot -100%
Target sequence (P80244 whole entry, looked up): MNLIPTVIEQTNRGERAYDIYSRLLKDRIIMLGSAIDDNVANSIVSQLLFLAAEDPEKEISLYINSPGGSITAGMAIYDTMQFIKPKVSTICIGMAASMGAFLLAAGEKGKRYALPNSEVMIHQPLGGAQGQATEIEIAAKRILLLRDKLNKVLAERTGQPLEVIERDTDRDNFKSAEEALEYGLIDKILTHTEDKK
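FRET quenching reversal measured ClpP activation: 10 microg/mL B. subtilis ClpP at pH 8 with the FRET-FV decapeptide, read at 430 nm after 320 nm excitation. The 20-min minus 0-min signal was scaled between DMSO/no-enzyme wells and ADEP (5.8 microM final).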
D2 ag – agonists of human D2 dopamine receptor (beta-arrestin). DiscoveRx PathHunter D2 beta-arrestin, luminescence, 90 min; 100% = 57 uM dopamine signal. activation, % (test concentration not listed). P14416. 360,000 compounds, 0.084% hits; in the data active = activation above about 40%; inconclusive = about 15% to 40%; inactive = below about 15%; further: compound concentration not given in the record; the text of the record calls up to 30% inactive
Target sequence (P14416 whole entry, looked up): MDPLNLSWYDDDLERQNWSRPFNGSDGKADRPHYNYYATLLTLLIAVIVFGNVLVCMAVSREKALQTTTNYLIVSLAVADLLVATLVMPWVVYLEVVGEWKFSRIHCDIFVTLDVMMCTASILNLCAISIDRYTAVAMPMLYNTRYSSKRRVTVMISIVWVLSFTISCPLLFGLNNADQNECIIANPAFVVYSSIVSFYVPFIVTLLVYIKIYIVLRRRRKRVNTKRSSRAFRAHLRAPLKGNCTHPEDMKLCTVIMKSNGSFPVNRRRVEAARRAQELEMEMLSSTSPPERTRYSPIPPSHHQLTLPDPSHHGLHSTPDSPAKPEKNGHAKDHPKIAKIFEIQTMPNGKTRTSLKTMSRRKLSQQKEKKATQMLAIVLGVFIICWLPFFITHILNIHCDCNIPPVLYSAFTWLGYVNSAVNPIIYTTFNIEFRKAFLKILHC
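DiscoveRx PathHunter D2 beta-arrestin cells (2,100/well) attached overnight, then compound-stimulated 90 min at 37 C in HBSS/10 mM HEPES/0.1% Tween-20 buffer; beta-galactosidase complementation read by luminescence after 1 h at ambient temperature. Dopamine 57 uM final (EC100) as control.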
gsp ag – activates gsp, the McCune-Albright syndrome mutation; 340,000 compounds, 0.13% hits; Potency, µM (top dose mostly 76.9 µM), without a hit: top-dose activation (cAMP increase), usual class: activators; gsp mutant cells, cAMP HTRF, 30 min; control for the full effect not named in the record; AID 624287; active = well fitted activation curve with a large enough effect; inconclusive = small, poorly fitted or top-dose-only effect, or another doubt; inactive = no such curve, though single readings can be large or run the other way; cell line not stated here;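 further: phosphodiesterase inhibitor Ro 20-1724 added with compounds to block cAMP breakdown; potency means the concentration at half of the fitted maximal effect; nearly all actives have a fitted effect of over 60% in size; about a fifth of the inactives were tested at one dose only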
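Cells in DMEM/10% FBS with G418 were pretreated with compounds in DMSO plus […] (300 uM stock) for 30 min at 37C. cAMP was measured by HTRF (cAMP-d2 plus anti-cAMP antibody-K) after 30 min at room temperature.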
An asterisk follows results filed as active; & = joins results of further samples; [ ] = another dose, or the depositor's remark.

How did Cc1cccc(CN2CCN(C3CN(Cc4ccccc4)S(=O)(=O)C3)CC2)c1 (stereo not drawn) do in these assays?
PINK1 expr mod: -0.8%; ClpP mod: 1.1%; D2 ag: -2.1

Results for Cc1nnc(SCC(=O)Nc2ccc3[nH]c(=O)[nH]c3c2)s1 ?
gsp antag: 2.0%; PINK1 expr mod: -0.4%; ClpP mod: -1.9%; D2 ag: 4.9; gsp ag: -3.5%[15.4 µM]

Results for Cc1nc2ccccn2c1C(=O)/C=C/c1cccc([N+](=O)[O-])c1 ?
Sfp PPTase inh: -6.7%; gsp antag: 2.6%; PINK1 expr mod: 11.4%; Menin MLL FP FL: -2.0; ClpP mod: 0.5%; D2 ag: -1.8; gsp ag: -20.6%

How did CCOC(=O)C1CCN(S(=O)(=O)CCNC(=O)c2ccc(F)cc2)CC1 do in these assays?
gsp antag: 9.9%; PINK1 expr mod: -2.2%; ClpP mod: -15.1%; D2 ag: 2.4; gsp ag: -32.3%[inhibitor]

What do the screens show for `COc1ccccc1CN1CC(C(=O)NCc2cc(F)ccc2C)CCC1=O` (stereo not drawn)?
Sfp PPTase inh: -2.2%; gsp antag: 12.4%; PINK1 expr mod: -0.4%; Menin MLL FP FL: -5.8; ClpP mod: 0.7%; D2 ag: -3.4; gsp ag: 16.0%

How did CCOc1cc(NC(=O)c2ccccn2)c(OCC)cc1NC(=O)c1ccc(C)cc1 do in these assays?
Sfp PPTase inh: 6.4%; gsp antag: 4.9%; PINK1 expr mod: 2.2%; Menin MLL FP FL: 4.5; ClpP mod: 2.5%; D2 ag: 1.5; gsp ag: -29.6%

Results for O=C(Nc1ccccc1-c1ccccc1)c1ccc(Cl)c([N+](=O)[O-])c1 ?
Sfp PPTase inh: 5.1%; gsp antag: -25.8%; PINK1 expr mod: -2.1%; Menin MLL FP FL: 7.7; ClpP mod: 4.8%; D2 ag: -4.0; gsp ag: -4.1%

How did O=C1C2CC=CCC2C(=O)N1Cc1ccccc1 (stereo not drawn) do in these assays?
Sfp PPTase inh: 13.0%; gsp antag: 7.5%; PINK1 expr mod: 0.2%[38.3 µM]; Menin MLL FP FL: 2.0; ClpP mod: -1.6%; D2 ag: -0.8; gsp ag: inconclusive

How did Cc1cc(=O)[nH]c(N/N=C/c2ccc(N(C)C)cc2)n1 do in these assays?
Sfp PPTase inh: inconclusive; gsp antag: inconclusive; PINK1 expr mod: -2.4%; Menin MLL FP FL: -1.9; D2 ag: -0.7; gsp ag: 1.8%

Results for Cc1ccc(CNC(=O)CCNS(=O)(=O)c2cccc3nonc23)cc1 ?
Sfp PPTase inh: 13.8%; gsp antag: 2.9%; PINK1 expr mod: -5.4%[38.3 µM]; Menin MLL FP FL: -1.9; ClpP mod: 1.1%; D2 ag: -1.0; gsp ag: 5.5%

Results for COc1ccc(-c2nnc3ccc(SCC(=O)N4CCCC4)nn23)cc1 ?
Sfp PPTase inh: inconclusive; gsp antag: -8.9%; PINK1 expr mod: 0.4%; Menin MLL FP FL: 2.4; ClpP mod: 0.6%; D2 ag: 1.5; gsp ag: inconclusive

Results for Cn1c(=O)c2c(ncn2CC(=O)N2CCN(S(=O)(=O)c3ccc(F)cc3)CC2)n(C)c1=O ?
gsp antag: -9.2%; PINK1 expr mod: 2.6%; ClpP mod: -0.3%; D2 ag: -1.4; gsp ag: inconclusive

Results for O=C(O)C1C2C=CC(O2)C1C(=O)NCc1ccc(Cl)cc1 (stereo not drawn) ?
Sfp PPTase inh: 20.9%; gsp antag: 9.1%; PINK1 expr mod: 0.8%; Menin MLL FP FL: 3.0; ClpP mod: 35.5µM*; D2 ag: -1.2; gsp ag: 11.9%

Results for CC(C)OC(=O)c1ccc2nc3ccccc3nc2c1 ?
Sfp PPTase inh: -12.8%; gsp antag: 0.0%; PINK1 expr mod: inconclusive; Menin MLL FP FL: -9.9; ClpP mod: 1.4%; D2 ag: -4.0; gsp ag: 14.4%[15.4 µM]

How did CCOC(=O)c1sc(-c2ccc(C)cc2)c(C#N)c1C do in these assays?
Sfp PPTase inh: inconclusive; gsp antag: 6.5%; PINK1 expr mod: 4.8%; Menin MLL FP FL: -2.3; D2 ag: 1.3; gsp ag: -3.6%[15.4 µM]

What do the screens show for `CCc1nc2ccc(C(=O)NCc3ccco3)cc2nc1CC`?
Sfp PPTase inh: 35.5µM*; gsp antag: 8.9%; PINK1 expr mod: -0.4%; Menin MLL FP FL: -0.8; ClpP mod: -2.3%; D2 ag: -1.7; gsp ag: -17.3%

How did CCC(C)C(CO)NCCCn1cnc(C(=O)Nc2ccc(C)c(C)c2)n1 (stereo not drawn) do in these assays?
gsp antag: 18.2%; PINK1 expr mod: -1.4%; ClpP mod: -1.0%; D2 ag: 0.3

What do the screens show for `CN(c1cccc(NC(=O)c2ccc(CN3CCc4ccccc4C3)cc2)c1)S(C)(=O)=O`?
Sfp PPTase inh: 4.7%; gsp antag: -16.4%; PINK1 expr mod: 0.0%; Menin MLL FP FL: 1.2; ClpP mod: -0.9%; D2 ag: -2.5; gsp ag: -4.5%

How did CCOc1cccc(CN2CCC(n3nccc3NC(=O)CCCc3ccccc3)CC2)c1 do in these assays?
Sfp PPTase inh: 2.4%; gsp antag: -18.8%; PINK1 expr mod: -0.3%; ClpP mod: -4.4%; D2 ag: -2.5; gsp ag: 23.3%

What do the screens show for `C=Cc1ccc(C(=O)NC2CCCN(Cc3ccccc3F)C2)cc1` (stereo not drawn)?
Sfp PPTase inh: 8.6%; gsp antag: 4.5%; PINK1 expr mod: 1.1%; Menin MLL FP FL: -0.9; ClpP mod: 0.3%; D2 ag: -0.2; gsp ag: 2.2%[15.4 µM]

Results for COc1ccc(-c2cc(C(=O)c3c(N)n(C)c(=O)n(C)c3=O)c3ccccc3n2)cc1OC ?
Sfp PPTase inh: -1.7%; gsp antag: 3.2%; PINK1 expr mod: 2.8%; Menin MLL FP FL: -2.1; ClpP mod: -4.4%; D2 ag: 0.0; gsp ag: 7.4%

Results for Cc1ccc(NC(=O)c2cccs2)cc1S(=O)(=O)Nc1cccc(Cl)c1 ?
Sfp PPTase inh: 3.3%; gsp antag: -21.3%; PINK1 expr mod: 19.2%; Menin MLL FP FL: 7.4; ClpP mod: -6.7%; D2 ag: 5.3; gsp ag: 2.5%

How did COc1ccc(NC(=O)NNC(=O)COc2ccc3cc(Br)ccc3c2)cc1OC do in these assays?
Sfp PPTase inh: -12.6%; gsp antag: -10.2%; PINK1 expr mod: 0.0%; ClpP mod: -0.2%; D2 ag: 0.0; gsp ag: 15.2%

What do the screens show for `CN(CC(=O)Nc1ccccc1C(F)(F)F)CC(=O)N1CCCCCC1`?
gsp antag: 7.4%; PINK1 expr mod: -1.7%; ClpP mod: -0.3%; D2 ag: 4.1; gsp ag: -0.4%

What do the screens show for `Nc1cc(Cl)ccc1N1C(=O)CCC1=O`?
Sfp PPTase inh: -1.7%; gsp antag: 4.7%; PINK1 expr mod: 0.7%; Menin MLL FP FL: 0.4; ClpP mod: 0.6%; D2 ag: -6.7; gsp ag: -40.2%[inhibitor]

What do the screens show for `COn1c2c(c3c4nonc4ccc31)CCCC2`?
Sfp PPTase inh: -27.4%; gsp antag: 6.7%; PINK1 expr mod: -1.2%[38.3 µM]; Menin MLL FP FL: 1.3; ClpP mod: -5.1%; D2 ag: -0.3; gsp ag: -33.5%

What do the screens show for `COc1ccc(NS(=O)(=O)c2ccc(Cl)c(NC(=O)c3cccnc3Cl)c2)cc1`?
Sfp PPTase inh: -4.5%; gsp antag: -13.7%; PINK1 expr mod: 0.1%; Menin MLL FP FL: 2.9; ClpP mod: -4.6%; D2 ag: -2.1; gsp ag: 1.6%

Results for Cc1nn(-c2ccccn2)c(C)c1Oc1ccccc1O ?
Sfp PPTase inh: 2.0%; gsp antag: -10.5%; PINK1 expr mod: 3.9%[38.3 µM]; Menin MLL FP FL: -1.8; ClpP mod: 0.3%; D2 ag: 0.0; gsp ag: -20.5%

Results for COc1ccc(NS(=O)(=O)c2ccc(N3CCOCC3)c(N)c2)cc1 ?
gsp antag: -13.3%; PINK1 expr mod: -1.1%; ClpP mod: 0.1%; D2 ag: 3.4; gsp ag: -19.2%

What do the screens show for `COc1ccc(S(=O)(=O)N2CC(O)CC2C(=O)OCc2nc3sc(C)c(C)c3c(=O)[nH]2)cc1` (stereo not drawn)?
Sfp PPTase inh: -27.9%; gsp antag: 15.3%; PINK1 expr mod: -0.2%; Menin MLL FP FL: 6.9; ClpP mod: -3.9%; D2 ag: -3.4; gsp ag: 18.9%[15.4 µM]

What do the screens show for `Cc1ccccc1C(=O)N1CCC(n2nccc2NC(=O)C2CC2)CC1`?
Sfp PPTase inh: 8.3%; gsp antag: 14.9%; PINK1 expr mod: 2.2%; ClpP mod: 0.3%; D2 ag: 0.5; gsp ag: -19.8%

Results for O=C(NC1CCCC1)C(c1cccnc1)N(C(=O)c1csnn1)C1CC1 (stereo not drawn) ?
Sfp PPTase inh: 4.7%; gsp antag: 8.0%; PINK1 expr mod: 5.4%[38.3 µM]; Menin MLL FP FL: 2.1; ClpP mod: -0.5%; D2 ag: -2.6; gsp ag: -4.9%

What do the screens show for `CSc1ccc(CCNC(=O)Cn2ncc3c([nH]c4ccccc43)c2=O)cc1`?
Sfp PPTase inh: -5.9%; gsp antag: 24.4%; PINK1 expr mod: 10.7%&3.7%; Menin MLL FP FL: 4.1; ClpP mod: -3.2%&-4.5%; D2 ag: -2.3; gsp ag: inconclusive

Results for c1ccc(-c2nccc(-c3ccc(-n4cnc5ccccc54)cc3)n2)cc1 ?
Sfp PPTase inh: -18.8%; gsp antag: -4.6%; PINK1 expr mod: 2.1%; Menin MLL FP FL: 0.6; ClpP mod: -13.4%; D2 ag: -3.3; gsp ag: -13.3%
